High-throughput results (PubChem BioAssay)
ClpP mod: qHTS Assay for Activators of ClpP | ATP-dependent Clp protease proteolytic subunit (Bacillus subtilis (strain 168)), P80244 | purified B. subtilis ClpP, FRET peptide cleavage, 20 min | Potency, µM (highest dose often 57.5 µM), without a hit: at the top dose activity change, negative = active | 1.9% of 340,000 active | AID 651965, 2013; active = well fitted falling curve with a large enough effect; inconclusive = small, poorly fitted or top-dose-only effect; inactive = no such curve, though single readings can be large or run the other way; also: potency is read from the fitted curve at half-maximal effect; the source files actives as falling curves though it sought activators and does not explain the sign; nearly all actives have a fitted effect of over 65% in size; many hits overshoot -100%
Target sequence (P80244 whole entry, looked up): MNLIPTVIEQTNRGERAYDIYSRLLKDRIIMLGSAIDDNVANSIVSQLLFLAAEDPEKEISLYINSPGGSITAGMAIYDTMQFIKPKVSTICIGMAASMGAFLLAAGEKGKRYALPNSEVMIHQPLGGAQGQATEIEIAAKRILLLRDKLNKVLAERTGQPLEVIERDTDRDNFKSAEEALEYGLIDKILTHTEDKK
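Buffer: 100 mM Tris/HCl pH8, 100 mM KCl, 0.05% low protease BSA, 2.5% glycerol, 0.01% Tween-20. ClpP 10 microg/mL final; 20 min RT; delta FRET normalized to ADEP and DMSO controls.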
gsp agonist: gsp mutant agonism | gsp mutant cells, cAMP HTRF, 30 min; control for the full effect not named in the record | Potency, µM (titrated, usually from 76.9 µM), for inactives: at the highest dose activation (cAMP increase), actives largely listed as activators | 0.13% of 340,000 active | AID 624287; active = well fitted activation curve with a large enough effect; inconclusive = small, poorly fitted or top-dose-only effect, or another doubt; inactive = no such curve, though single readings can be large or run the other way; cell line not stated here;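 also: phosphodiesterase inhibitor Ro 20-1724 added with compounds to block cAMP breakdown; potency is read from the fitted curve at half-maximal effect; nearly all actives have a fitted effect of over 60% in size; about a fifth of the inactives were tested at one dose only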
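Cells in DMEM/10% FBS with G418 were pretreated with compounds in DMSO plus […] (300 uM stock) for 30 min at 37C. cAMP was measured by HTRF (cAMP-d2 plus anti-cAMP antibody-K) after 30 min at room temperature.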
TRPML1 inh: blocks the human TRPML1 channel | Q9GZU1 | TRPML1-inducible cells, Ca2+ dye fluorescence, FDSS; active compounds read low; inhibition of EC80 agonist-evoked calcium signal | activity change, negative = inhibition, % (no concentration beside the values) | 0.02% of 390,000 active | AID 624415; in the data active means activity change below about -50%; inconclusive means about -30% to -50%; inactive means above about -30%;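 also: stimulus is agonist 54-4 at its EC80 concentration; % is scaled to controls: 0 for no effect and ±100 for the full control effect; compound concentration not given in the record; the text of the record puts the active cut at -80%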
Target sequence (Q9GZU1 whole entry, looked up): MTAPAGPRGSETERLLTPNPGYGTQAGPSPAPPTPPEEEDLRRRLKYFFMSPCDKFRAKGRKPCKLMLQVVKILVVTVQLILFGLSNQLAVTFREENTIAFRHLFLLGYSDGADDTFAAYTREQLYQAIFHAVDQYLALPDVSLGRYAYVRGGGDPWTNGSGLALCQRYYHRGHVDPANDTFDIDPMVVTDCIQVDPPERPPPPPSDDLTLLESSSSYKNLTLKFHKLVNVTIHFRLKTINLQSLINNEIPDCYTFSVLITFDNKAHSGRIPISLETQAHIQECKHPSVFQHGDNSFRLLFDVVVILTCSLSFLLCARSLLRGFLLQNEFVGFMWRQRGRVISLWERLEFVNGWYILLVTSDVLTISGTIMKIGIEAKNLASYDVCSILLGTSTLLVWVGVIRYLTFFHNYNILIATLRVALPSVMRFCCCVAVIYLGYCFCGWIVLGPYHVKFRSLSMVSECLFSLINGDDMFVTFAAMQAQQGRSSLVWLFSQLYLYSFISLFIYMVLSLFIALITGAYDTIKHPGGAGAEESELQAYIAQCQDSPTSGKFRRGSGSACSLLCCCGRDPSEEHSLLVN
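Calcium fluorescence in TRPML1-DL cells induced overnight with Tet: a 110 s read after compound pin addition, then a 110 s antagonist read after challenge with 54-4 at 4 uM final (EC80).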
TRPV1 potentiator: potentiators of human vanilloid receptor 1 (TRPV1). Q8NER1. potentiation, % at 8.33 µM. 0.02% of 320,000 active. TRPV1-expressing cells, Fluo-8 calcium influx, capsaicin EC20 potentiation; host cell line not named in the record; control for the full effect not named in the record; active means potentiation above 80%; inconclusive means 30% to 80%; inactive means below 30%; also: 0% is about no effect
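Fluo-8 calcium influx in TRPV1-expressing cells, kinetic read (ex 480/em 520 nm). Compound added and read 3 min for agonist activity, followed by capsaicin at EC20 final and 2 min further read for enhancement.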
Sfp PPTase inh: blocks B. subtilis Sfp PPTase activity. Biochemical Sfp PPTase activity, qHTS. AID 1490. Potency, µM, for inactives: max response, negative = inhibition, hits mostly inhibitors. 3.5% of 310,000 active. Q9F4F7; active = well fitted inhibition curve with a large enough effect; inconclusive = small, poorly fitted or top-dose-only effect, or another doubt; inactive = no such curve, though single readings can be large or run the other way;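 also: the enzyme is Sfp with the accession as filed and its product quenches rhodamine fluorescence; potency is read from the fitted curve at half-maximal effect; 0% = enzyme reaction without inhibitor and -100% = no enzyme wells; top concentration of the series not given in the record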
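Compounds were incubated with enzyme (final 15 nM) for 15 min at room temperature before substrate addition started the reaction. Fluorescence at 525 nm excitation, 598 nm emission was recorded immediately and after 30 minutes.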
Menin-MLL FL inh: displaces fluorescein MLL peptide from human menin. Fluorescence polarization, fluorescein-MLL peptide displacement from menin. FP activity change, % at 61.4 µM. 290,000 tested, under 10 active. AID 1766; inconclusive = falling polarisation curve, or a change in total fluorescence; inactive = total fluorescence flat and polarisation flat or rising; no compound was filed as active; the % refers to the polarisation; negative = inhibition;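 also: % of control where 0% means no effect; inhibitors lower the polarisation; unlabelled MLL peptide was the positive control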
gsp antagonist: antagonists of gsp mutant (McCune-Albright syndrome); AID 624288; Potency, µM (doses to about 76.9 µM), for inactives: at the highest dose activity change, negative = inhibition, most hits filed as inhibitors; 0.4% of 340,000 active; gsp-mutant cells, cAMP HTRF, 30 min; control for the full effect not named in the record; active = falling curve of any shape with a large fitted effect; inconclusive = falling curve, mostly with a smaller effect; inactive = flat or rising curve; cell line not stated here;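 also: intracellular cAMP measured with PDE inhibitor Ro 20-1724 present during compound exposure; potency is read from the fitted curve at half-maximal effect; % is scaled to controls: 0 for no effect and ±100 for the full control effect; nearly all actives have a fitted effect of over 65% in size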
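G418-selected cells were plated in DMEM/10% FBS for 16-24 h at 37C, then treated with compounds plus the PDE inhibitor […] (300 uM solution added) for 30 min at 37C. Intracellular cAMP was measured by HTRF after 30 min lysis at room temperature.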
* = called active by the depositor; ? = inconclusive; nt = not tested or not shown; & = joins results of further samples; [ ] = remark or other dose.

Every second line gives: Sfp PPTase inh, ClpP mod, gsp agonist, TRPV1 potentiator, gsp antagonist, Menin-MLL FL inh, TRPML1 inh
Cc1ccc(C2(C)NC(=O)N(CC(=O)N3c4ccccc4NC(=O)CC3C)C2=O)cc1 (configuration not stated)
→ nt, -0.8%, -23%, -8, -25%, nt, -4
O=C(CNC(=O)c1ccc(Br)o1)NC1CCCCC1
→ 11%, 1.7%, ?, -3, 1%, -3.0, -11
COCCN1C(=O)/C(=C2/C(=O)N(CC(=O)Nc3ccccc3Cl)c3ccccc32)SC1=S
→ -27%, -0.4%, -3%, -6, 0%, -3.7, 18
CS(=O)(=O)NCCNc1cc(Cl)ccc1[N+](=O)[O-]
→ 16%, nt, -22%, 2, 8%, -3.7, 2
CC(C)CN(CCNC(=O)CN1C(=O)COc2ccc(S(=O)(=O)N3CCC(C)CC3)cc21)CC(C)C
→ 9%, -2.7%, -16%, 12, 18%, nt, 1
O=C(Cc1ccc(Cl)cc1)Nc1ccc(N2CCN(C(=O)c3ccco3)CC2)cc1
→ -3%, -4.5%, -2%, 0, -2%, 7.7, 2
CC(C)[C@H](NC(=O)N1CCn2c1nc1ccccc12)C(=O)N[C@@H](C(=O)O)c1ccccc1
→ 1%, 0.4%, 2%, 29, 0%, 0.6, -8
Nc1cc(N)nc(SCC(=O)NNC(=O)c2ccc(Cl)cc2)n1
→ -10%, -1.6%, -40%[inhibitor], 4, 3%, 5.5, -2
Cc1nnc(SCCCn2c(N3CCN(c4ccccc4)CC3)nc3c2c(=O)[nH]c(=O)n3C)s1
→ 17%, -2.0%, ?, 6, -9%, 2.3, -12
Oc1ccc(N=Nc2ccc3c(c2)OCCO3)c2ncccc12
→ 1%, 1.5%, -16%, 10, 6%, 1.9, 3
CN(c1ccc(OCC(=O)N2CCCC2)cc1)S(=O)(=O)c1ccc(Cl)cc1
→ nt, -4.6%, -1%, -8, -14%, nt, -11
CCCCn1c(-c2ccc(OC)cc2)nc2c(=O)n(C)c(=O)[nH]c21
→ -1%, 4.3%, 20%, 12, -1%, -7.1, 0
COc1cccc(NC(=O)N2CCN(c3nc(-c4cccc(OC)c4)cs3)CC2)c1
→ 1%, 0.4%, -18%, 12, ?, 5.5, -7
CCN(CC(=O)Nc1ccc(OC)cc1)C(=O)Cc1coc2cc(C)c(C)cc12
→ nt, 1.2%, 7%, -2, -13%, nt, 5
COC(=O)c1cnn(-c2ccc(C(=O)Nc3cccc(C(C)=O)c3)cc2)c1N
→ nt, 2.9%, nt, -28, nt, nt, 5
O=C(NCC1OCCCN1S(=O)(=O)c1cc(F)ccc1F)C(=O)NC1CCCC1 (configuration not stated)
→ 7%, -0.9%, -17%, 0, 3%, nt, 15
CC(=O)c1cccc(OCc2cc(C(=O)N(C)CCc3ccccn3)no2)c1
→ 8%, -1.2%, -2%, 6, -14%, 1.3, 15
C/C(=N\NC(=O)c1nc2ccccn2c1C)c1cccc([N+](=O)[O-])c1
→ 25%, 18µM*, 26%[15.4 µM], 17, -19%, -0.1, -10
O=C1c2cccc(OCC(=O)N3CCCc4ccccc43)c2CCN1Cc1cccnc1
→ -16%, 2.0%, 2%[15.4 µM], -17, -83%, 3.5, 57
COc1ccc(-c2cn3c(C)c(C(=O)N4CCCc5ccccc54)sc3n2)cc1
→ nt, -2.6%, -41%[inhibitor], nt, -31%, nt, 36
O=C(/C=C/c1ccc([N+](=O)[O-])cc1)Nc1ncc([N+](=O)[O-])s1
→ 40µM*, -3.4%, -28%, -4, ?, -4.7, 4
CCNC(=S)N1CCCCC1CO (configuration not stated)
→ -9%, -0.8%, -8%, 1, 4%, -1.0, 0
CCC(=O)N1CC2(c3ccccc3)CN(C(=O)CC)CC(c3ccccc3)(C1)C2=O
→ 20%, -1.9%, 0%, 3, -23%, 1.7, nt
CC(C)(C)OC(=O)C[C@H]1C/C=C\C[C@H](CC(=O)NCCO)C(=O)N[C@@H](c2ccccc2)COC1=O
→ nt, -3.6%, -13%, nt, 10%, nt, 11
Cc1ccc(S(=O)(=O)NCC(=O)Nc2cccnc2)cc1C
→ nt, 0.3%, 0%[15.4 µM], nt, -2%, nt, -1
Cc1ccc2[nH]c(=O)c(CN(Cc3cccs3)Cc3nnnn3Cc3ccccc3)cc2c1
→ -6%, -23%, -13%, 1, -17%, -0.6, -5
CCc1ccc(NC(=O)CN(c2ccccc2)S(=O)(=O)N(C)C)cc1
→ 2%, nt, ?, -4, 4%, 1.3, -24
COc1cc(OC)cc(-c2cc3nc(C)c(CCC(=O)NC(C)CCc4ccco4)c(C)n3n2)c1 (configuration not stated)
→ -7%, -3.5%, 13%, -1, -9%, 8.6, 2
CCCOc1ccc(/C=N/NC(=O)CN2CCCCC2)cc1
→ 21%, -0.9%, 1%[15.4 µM], -8, 5%, -7.8, 1
Cc1sc(NC(=O)CS(=O)(=O)c2ccccc2)c(C#N)c1C
→ nt, -2.6%, -7%[15.4 µM], -13, -7%, nt, -14
CC(C)/C=C/CN1CCN(CCCc2ccccc2)C(CCO)C1 (configuration not stated)
→ 2%, -2.0%, 6%[15.4 µM], -6, 5%, -3.1, 17
CCN1C(=O)C(CC(=O)Nc2ccc(Cl)cc2)N(NC(=O)c2ccncc2)C1=S (configuration not stated)
→ 9%, -1.4%, -12%[15.4 µM], -13, 0%, -0.4, -4
O=C(N/N=C/c1cccc(Cl)c1Cl)Nc1ccccc1
→ 8%, -2.3%, -5%, 9, 10%, 3.5, 1
Cc1ccc2cc3c(N)[nH]nc3nc2c1
→ 3%, -0.8%, -33%[inhibitor], 21, -13%, 0.6, -7
O=C(Nc1nnc(-c2ccco2)o1)C1CCCCC1
→ -2%, -2.1%, -1%, nt, 2%, -0.1, 43
CCOC(=O)C1(CC2CC2)CCN(Cc2cnc(-c3ccccc3C)nc2)CC1
→ -2%, 1.4%, -22%, ?, 3%, -4.3, -19
Cc1ccc(S(=O)(=O)N2CCCCC2)cc1NC(=O)CN1C(=O)CN(C)C1=O
→ 4%, nt, -8%[15.4 µM], 1, 6%, -0.3, -11
Cc1ccc(CNC(=O)C2CCN(S(=O)(=O)c3cnc[nH]3)CC2)cc1
→ -6%, -14%, ?, 1, 5%, -3.3, 3
CCC1=C(OC(=O)N(CC)CC)N2C(=O)OC(=NCCOC)[C@]2(Cc2ccccc2)[C@H]2C1=CC[C@H]1C(=O)N(CC(=O)OC)C(=O)[C@H]12
→ 26%&8%, -0.7%, nt, ?, -3%, -11&-6.8, -2
COC(=O)c1ccc(COC(=O)c2ccc(S(=O)(=O)N3CCC(C)CC3)cc2)o1
→ 22%, ?, ?, -11, 3%, 0.6, -12
O=C(CN1CCN(C(=O)c2ccccc2)CC1)Nc1ccccc1
→ 12%, nt, 1%, 22, 3%, ?, -8
CC(C)C(=O)Nc1nc(-c2ccc(S(=O)(=O)N3CCOCC3)cc2)cs1
→ 1%, 32µM*, -13%, 12, 4%, nt, -20
CC(C)c1nc(CNC(=O)c2ccc(OC3CCN(Cc4ccccn4)CC3)cc2)cs1
→ 5%, 0.0%, ?, 23, 6%, -4.0, 12
O=C(NC(=S)Nn1cnnc1)c1cccc(Br)c1
→ -68%, 1.0%, -5%[15.4 µM], 0, 10%, 0.7, -2
CC(C)CNS(=O)(=O)c1cc(C(=O)N2CC(C)OC(C)C2)c(Cl)cc1Cl (configuration not stated)
→ 6%, -1.4%, -23%, 2, -17%, 2.7, 1
COc1cc2c(cc1OC)CN(CC(=O)Nc1ccc(C)cc1)CC2
→ 23%, -0.3%, -28%, 27, -5%, 4.5, 12
CCOc1ccc(C(=O)CSc2nnc(N)s2)cc1
→ 3%, -0.9%, -26%, -8, -15%, 0.4, -3
COc1cccc(CN(CC(=O)NCC2CCCO2)C(=O)CCC(=O)Nc2cc(C)on2)c1 (configuration not stated)
→ 8%, 0.4%, -13%, -5, -1%, -2.0, 14
O=C(CSc1cc(Cl)ccc1Cl)NC1CCCC1
→ 3%, nt, 19%, -12, -4%, 4.4, -27
Cc1ccc(CCCOC(=O)C[N+]2(C)CCCC2)cc1
→ -10%, 1.0%, 21%, -6, 8%, -1.3, 11

The list goes on.
Every second line gives: Sfp PPTase inh, ClpP mod, gsp agonist, TRPV1 potentiator, gsp antagonist, Menin-MLL FL inh, TRPML1 inh
CSc1nc2sc3c(c2c(=O)n1C1CCCCC1)CCN(C)C3
→ 6%, -1.1%, 0%, -8, 11%, 1.8, -1
Cc1oc(C(C)(C)C)cc1C(=O)Nc1ccc2c(c1)OCCO2
→ 9%, -7.9%, -7%, -29, ?, 3.1, -21
O=c1c2ccccc2c2ccccc2c(=O)n1Cc1ccc2c(c1)OCO2
→ nt, -0.3%, -21%, nt, nt, nt, -1
Cc1ccc(S(=O)(=O)C2(C(=O)O)CCCC2)cc1C
→ -5%, 0.5%, 5%, ?, -1%, -0.4, -8
C[C@@H]1CCCCO[C@H](CN(C)C(=O)NC2CCCCC2)[C@@H](C)CN([C@H](C)CO)C(=O)c2cc(NC(=O)c3ccccc3)ccc2O1
→ nt, 1.4%, -53%[inhibitor], nt, nt, nt, 4
Cc1nn(C)cc1-c1n[nH]c(=S)n1-c1ccc(F)cc1
→ -8%, 0.5%, 5%[15.4 µM], 3, 2%, 10, -1
COc1ccc(Cc2nnc(SCc3c(C)noc3C)n2C2CCCCC2)cc1OC
→ 17%, -2.8%, -19%, 10, -20%, 0.4, 26
